StopGo reporter – High Throughput Screening for Foot and Mouth Disease Virus Antivirals | human cells with a luciferase reporter of 2A StopGo recoding; control for the full effect not named in the record | Potency, µM (highest dose often 57.9 µM), inactives show at the top dose signal change, negative = less light | actives 1.2% (n = 410,000) | AID 1159524, 2015; active = well fitted falling curve with a large enough effect; inconclusive = small, poorly fitted or top-dose-only effect; inactive = no such curve, though single readings can be large or run the other way; tested in HEK293T cells; note: % is set by controls: 0 for no effect and ±100 for the full control effect; nearly all actives have a fitted effect of over 45% in size; luciferase light after 4 h
Marburg entry inh – qHTS for inhibitors of binding or entry into cells for Marburg Virus; Marburg virus pseudotyped entry inhibition, cell reporter; control for the full effect not named in the record; about a third of the inactives were read at about 46 µM; actives 1.8% (n = 300,000); AID 540276, 2011; Potency, µM (highest dose often 37.8 µM), for inactives: top-dose activity change, negative = inhibition, actives largely listed as inhibitors; active = well fitted inhibition curve with a large enough effect; inconclusive = small, poorly fitted or top-dose-only effect, or effect the other way; inactive = flat fitted curve, though single readings scatter; tested in HEK293 cells; about a fifth of its hits are not listed in these tables; note: % is set by controls: 0 for no effect and ±100 for the full control effect; luciferase read-out
Cruzain noTriton – qHTS Assay for Promiscuous and Specific Inhibitors of Cruzain (without detergent). purified cruzain, Z-FR-AMC fluorescence, no detergent. Potency, µM, for inactives: max response, negative = inhibition, actives largely listed as inhibitors. actives 2.3% (n = 200,000);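 note: plate controls were enzyme without inhibitor for no effect and buffer without enzyme for full effect; nearly all actives have a fitted effect of over 40% in size; top concentration of the series not given in the record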
Target sequence (P25779 123-467 limits assumed): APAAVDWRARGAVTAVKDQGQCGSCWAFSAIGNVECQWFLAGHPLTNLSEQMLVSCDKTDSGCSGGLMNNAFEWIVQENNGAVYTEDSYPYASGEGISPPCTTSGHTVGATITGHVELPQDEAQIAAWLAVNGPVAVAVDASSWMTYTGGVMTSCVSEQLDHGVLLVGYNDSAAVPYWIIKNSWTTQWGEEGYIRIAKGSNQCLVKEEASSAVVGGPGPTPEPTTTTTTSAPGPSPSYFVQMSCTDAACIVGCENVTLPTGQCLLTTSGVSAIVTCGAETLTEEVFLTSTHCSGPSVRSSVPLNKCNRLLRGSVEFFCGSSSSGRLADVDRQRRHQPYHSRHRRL
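Purified cruzain at 1.5 nM, pre-incubated 15 min with compound at room temperature in 100 mM sodium acetate pH 5.5, 5 mM DTT, 0.00005% Triton X-100. Reaction started with 2 uM Z-FR-AMC; AMC fluorescence increase over 60 s gives rate.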
RE007 growth inh – qHTS Assay for Inhibitors of the HIV-1 protein Vpr. actives 0.21% (n = 360,000). Potency, µM (top dose mostly 92.2 µM), inactives show at the top dose activity change, negative = less growth. S. pombe RE007 Vpr strain, BacTiter-Glo ATP luminescence, 24 h; control for the full effect not named in the record. AID 651644, 2012; active = well fitted falling curve with a large enough effect; inconclusive = small, poorly fitted or top-dose-only effect; inactive = no such curve, though single readings can be large or run the other way;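 note: % is set by controls: 0 for no effect and ±100 for the full control effect; nearly all actives have a fitted effect of over 50% in size; the assay follows cell death caused by Vpr and the record does not say whether a fall means rescue or toxicity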
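Fission yeast RE007 carrying one integrated HIV-1 vpr copy, seeded at OD 0.01 in PMG+AL medium with 23 nL pinned compound. Grown 24 h at 30 degrees; viability read by BacTiter-Glo luminescence after 5 min.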
Cruzain inh Det – qHTS Assay for Promiscuous and Specific Inhibitors of Cruzain (with detergent); Cruzipain (Trypanosoma cruzi), P25779; Potency, µM, for the others: max response, negative = inhibition, most hits filed as inhibitors; purified cruzain, Z-FR-AMC fluorescence, 0.01% Triton; actives 0.43% (n = 200,000); AID 1478, 2009;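 note: plate controls were neutral wells for no effect and buffer without enzyme for full effect; nearly all actives have a fitted effect of over 40% in size; top concentration of the series not given in the record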
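Read-out: AMC fluorescence (360 nm excitation, 450 nm emission), four reads over 2 min, first-to-third difference used. Conditions: cruzain 1.5 nM, Z-FR-AMC 2 uM, pH 5.5 acetate, 5 mM DTT, 0.01% Triton X-100.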
LASV entry inh – qHTS for Inhibitors of binding or entry into cells for Lassa Virus. Potency, µM (top dose mostly 37.9 µM), for the others: at the highest dose activity change, negative = inhibition, actives largely listed as inhibitors. actives 1.2% (n = 300,000). Lassa virus pseudotype entry inhibition, cell reporter; control for the full effect not named in the record; active means well fitted inhibition curve with a large enough effect; inconclusive means small, poorly fitted or top-dose-only effect, or effect the other way; inactive means flat fitted curve, though single readings scatter; tested in HEK293 cells; note: % is set by controls: 0 for no effect and ±100 for the full control effect; nearly all actives have a fitted effect of over 50% in size; luciferase read-out
SARS PLP yeast – qHTS of Yeast-based Assay for SARS-CoV PLP; S. cerevisiae expressing SARS-CoV PLpro, growth rescue; control for the full effect not named in the record; Potency, µM (highest dose often 32.9 µM), for inactives: at the highest dose activity, positive = growth rescue; AID 485353, 2010; actives 0.19% (n = 330,000); active means well fitted rising curve with a large enough effect; inconclusive means small, poorly fitted or top-dose-only effect; inactive means no such curve, though single readings can be large or run the other way; note: 0% is about no effect; nearly all actives have a fitted effect of over 55% in size; growth read by luminescence after 48 h
NS1 function inh – qHTS Assay for Inhibitors of Influenza NS1 Protein Function; S. cerevisiae slowed by influenza A NS1, growth recovery by OD600; Potency, µM (doses to about 46.1 µM), for inactives: at the highest dose activity, positive = more growth; actives 0.4% (n = 270,000); AID 2326, 2010; active means well fitted rising curve with a large enough effect; inconclusive means small, poorly fitted or top-dose-only effect; inactive means no such curve, though single readings can be large or run the other way; note: nearly all actives have a fitted effect of over 50% in size
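S. cerevisiae expressing influenza A NS1, grown in glucose, washed, then diluted 1:100 into pH 6.0 -URA galactose medium with 23 nl compound. Growth recovery read as OD600; NS1-free strain serves as control.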
* = called active by the depositor; ? = inconclusive; · = no result given; & = joins results of further samples; [ ] = dose if it differs, or a comment. Unless noted, calls come from the whole dose curve; as a rule, active = well fitted curve in the direction sought with a large enough effect; inconclusive = small, poorly fitted or top-dose-only effect, or another doubt; inactive = no such curve, though single readings can be large; an effect the other way counts as inactive or inconclusive. Potency is the fitted concentration of half-maximal effect.

SMILES	StopGo reporter	Marburg entry inh	Cruzain noTriton	RE007 growth inh	Cruzain inh Det	LASV entry inh	SARS PLP yeast	NS1 function inh
O=S(=O)(c1ccc2nc(Cc3ccccc3)[nH]c2c1)N1CCOCC1	·	-11.3%	-10.6%	0.5%	1.5%	0.8%	0.5%	-4.5%
Cc1ccccc1CNC(=O)Cc1csc2ccccc12	7.9%	?	-1.9%	·	-8.4%	10.2%[46.1 µM]	·	·
CC(=NCCC1=CCCCC1)c1c(O)[nH]c(=O)[nH]c1=O	-6.9%	-11.2%	-3.9%	42.7%	5.9%	-2.4%	-1.6%	-7.0%
CC(=O)c1sc(Nc2ccccn2)nc1C	22.6%	3.5%	-6.8%	?	-13.4%	21.2%	-0.2%	-12.5%
O=C1CC(c2ccc(O)c(O)c2)Oc2cc(O)cc(O)c21 (configuration not stated)	8.1%&10.7%	·	-7.7%	3.9%	-3.0%	·	0.5%	4.2%
COc1ccc(CNC(=O)CSCc2ccccc2Cl)cc1	51.7%[activator]	?	-5.0%	0.5%	-3.4%	?	-3.1%	-4.2%
NS(=O)(=O)c1cccc(NC(=O)Nc2ccc(Cl)cc2)c1	26.2%	-1.1%[46.1 µM]	·	-20.0%	·	?	-1.9%	-31.7%
Cc1ccccc1-c1nc2c(c(SCc3cccc(Cl)c3)n1)Cc1c(CO)cnc(C)c1O2	4.2%	·	0.9%	·	-2.4%	29.0%[46.1 µM]	·	·
CC(=O)Nc1cccc(CP(=O)(c2ccccc2)c2ccccc2)c1	-15.9%	?	·	-4.0%	·	2.0%	0.6%	1.1%
Cc1ccc(OCCNC(=O)c2cccc(C)c2)cc1	12.1%	·	·	3.1%	·	·	-8.4%	-14.9%
CCCCN(C1CCS(=O)(=O)C1)S(=O)(=O)c1cccs1 (configuration not stated)	-8.8%	16.0%[46.1 µM]	·	7.1%	·	-1.8%	·	·
Cc1cc(Cl)ccc1NNC(=O)c1snnc1C	-12.1%	0.9%	·	44.2%	·	-25.9%	-2.6%	-63.6%
Cc1occc(=O)c1OCc1ccc(Cl)cc1Cl	?	·	·	16.0%	·	·	-2.3%	-2.5%
CCC(C)N1C(=O)NC(=O)C2(Cc3cc(C)ccc3N(C)C2)C1=O (configuration not stated)	-12.6%	-27.9%	-2.8%	-16.7%	0.6%	6.2%	-2.9%	2.5%
O=C(CC(=O)c1cccnc1)c1ccccc1	14.4%	?	·	?	·	-17.8%[46.1 µM]	·	·
COc1ccc(-c2cc(-c3ccccc3)nc(SC(C)C(=O)O)c2C#N)cc1 (configuration not stated)	-12.9%	?	·	1.7%	·	-30.7%	-0.6%	-36.8%
COc1ccc(CN2CCN(Cc3ccccc3F)CC2)cc1	-17.9%	?	·	-16.7%	·	-7.1%	0.9%	0.4%
O=C(Nc1cccnc1)c1ccc(Cl)c(S(=O)(=O)N2CCOCC2)c1	42.6%[activator]	2.8%	·	?	·	1.5%	2.3%	-5.1%
O=C(c1ccc(S(=O)(=O)c2ccccc2)cc1)N1CCCCCC1	0.0%	-20.5%	-9.0%	4.1%	3.2%	?	?	-3.7%
COc1cccc(CC2(CO)CCCN(Cc3cnn(-c4ccccc4)c3)C2)c1 (configuration not stated)	-20.8%	·	·	-20.8%	·	·	-0.7%	1.6%
CCNS(=O)(=O)c1cc(OC)ccc1OC	59.3%[activator]	-4.1%	8.6%	-10.4%[3.69 µM]	-1.2%	2.4%	-0.6%	-6.6%
Cc1ccc(S(=O)(=O)c2nc(-c3ccccc3)oc2NCCN2CCOCC2)cc1	-5.3%	?	13.3%	19.7%	-0.2%	-28.2%	3.1%	-19.1%
CNC(=S)NNC(=O)c1cccc(N(C)C)c1	4.0%	?	·	-4.2%	·	1.2%	0.0%	1.0%
CCN(C(=O)COC(=O)C(C)(C)Oc1ccc(Cl)cc1)c1c(N)n(Cc2ccccc2)c(=O)[nH]c1=O	-18.7%	?	·	-27.1%	·	-5.4%	·	·
COCCN(C(=O)CN1CCCc2ccccc21)c1c(N)n(Cc2ccccc2)c(=O)[nH]c1=O	-15.1%	26.2%	-4.7%	16.9%	-2.0%	-8.3%	-9.5%	8.9%
Cc1ccc(NC(=O)c2ccc3c(c2)CCN3S(C)(=O)=O)cc1C	19.3%	?	·	1.1%	·	?	-11.1%	3.0%
CC1=CC(C)(C)N(C(=O)CSc2nnc(N)s2)c2cc(C)c(C)cc21	-25.3%	-29.4%	-4.2%	-4.2%	-6.3%	5.1%	-4.8%	-7.8%
COc1cc2ccccc2cc1C(=O)N1CCCCC1	-5.6%	10.7%[46.1 µM]	·	5.4%	·	1.6%	-1.8%	·
COCCNCCCCOc1ccccc1-c1ccccc1	-4.3%	?	-10.2%	-20.8%	-1.1%	-28.9%	-9.9%	14.6%
CN(Cc1cccc(F)c1)C(=O)C(c1ccccc1)c1ccccc1	-1.8%	-1.6%[46.1 µM]	·	-3.4%	·	1.5%[46.1 µM]	0.0%	-1.6%
COc1ccccc1N=CC1=C(O)CC(c2ccccc2)CC1=O (configuration not stated)	0.0%	?	6.7%	-18.1%	-7.7%	?	-11.9%	1.2%
O=C(O)/C=C/c1cccc(NC(=O)Nc2ccc([N+](=O)[O-])cc2)c1	-10.8%	·	·	-6.2%	·	·	2.3%	0.6%
COc1cc(C=Nc2c(C)cc(C)cc2C)ccc1OC(C)=O	-19.7%	0.6%	-2.7%	·	-2.3%	-21.4%	12.6%	-3.0%
CCCCOc1ccc(OCCSc2nc3ccccc3n2CC(=O)O)cc1	0.6%	·	·	10.5%	·	·	-2.8%	10.2%
Cc1cc(C)n(-c2ccc(C(=O)NCc3cccs3)cc2)n1	18.3%	7.5%	-1.0%	-7.3%	0.6%	-10.1%	1.9%	-18.8%
COc1nc(Nc2cccc(F)c2)nc(OC)n1	13.9%	·	·	6.6%	·	·	4.4%	-7.5%
O=C(NCCCN1CCOCC1)C(=O)N/N=C/c1cccc2ccccc12	-5.5%	11.5%[46.1 µM]	·	-5.0%	·	10.5%	0.2%	0.6%
O=C(CSc1ncccn1)N/N=C/c1cccs1	·	?	-11.4%	-4.7%	-3.0%	10.1%	-10.2%	-0.1%
Cc1ccc(NC(=S)Nc2cccnc2)c(S(=O)(=O)N2CCCCC2)c1	-18.5%	?	·	3.8%	·	?	0.2%	·
COc1ccc(NC(=O)c2ccc3c(c2)CCN3S(=O)(=O)c2ccccc2)cc1	-16.5%&-5.8%	?	-7.0%	-4.0%	-1.5%	?	-9.3%	4.1%

Shown with two lines to a compound: three of the compounds above.
Under each structure – StopGo reporter, Marburg entry inh, Cruzain noTriton, RE007 growth inh, Cruzain inh Det, LASV entry inh, SARS PLP yeast, NS1 function inh
> CCCCOc1ccc(OCCSc2nc3ccccc3n2CC(=O)O)cc1
  0.6%, ·, ·, 10.5%, ·, ·, -2.8%, 10.2%
> Cc1cc(C)n(-c2ccc(C(=O)NCc3cccs3)cc2)n1
  18.3%, 7.5%, -1.0%, -7.3%, 0.6%, -10.1%, 1.9%, -18.8%
> COc1nc(Nc2cccc(F)c2)nc(OC)n1
  13.9%, ·, ·, 6.6%, ·, ·, 4.4%, -7.5%

Reformatted: results already given.
Results follow in this order: StopGo reporter | Marburg entry inh | Cruzain noTriton | RE007 growth inh | Cruzain inh Det | LASV entry inh | SARS PLP yeast | NS1 function inh
Cc1ccc(NC(=S)Nc2cccnc2)c(S(=O)(=O)N2CCCCC2)c1
→ -18.5% | ? | · | 3.8% | · | ? | 0.2% | ·
COc1ccc(NC(=O)c2ccc3c(c2)CCN3S(=O)(=O)c2ccccc2)cc1
→ -16.5%&-5.8% | ? | -7.0% | -4.0% | -1.5% | ? | -9.3% | 4.1%

Carrying on:
SMILES	StopGo reporter	Marburg entry inh	Cruzain noTriton	RE007 growth inh	Cruzain inh Det	LASV entry inh	SARS PLP yeast	NS1 function inh
CCOc1ccc(NC(=O)CN(C)C(=O)c2cc([N+](=O)[O-])ccc2N2CCOCC2)cc1OCC	-14.3%	-1.0%	·	-5.3%	·	-8.9%	·	·
CCOc1ccc(C2c3c(oc4cc(C)c(C)cc4c3=O)C(=O)N2CCCN(C)C)cc1OC (configuration not stated)	-17.7%	·	?	3.7%	-3.2%	·	-12.5%	?
O=C(Nc1cc(C(F)(F)F)ccc1N1CCOCC1)c1ccccc1	-30.0%	8.9%	-4.2%	-8.6%	-4.7%	-6.1%	9.2%	-3.1%
CN1C(=O)C(O)(CC(=O)/C=C/c2ccco2)c2cc(Br)ccc21 (configuration not stated)	-4.4%	?	·	4.8%	·	?	-0.1%	-0.1%
COc1ccc(-c2nnc(SCC(=O)Nc3c(C)cccc3C)nc2-c2ccc(OC)cc2)cc1	-20.7%	-25.7%[46.1 µM]	-11.9%	·	-2.9%	-9.0%[46.1 µM]	·	·
CCOC(=O)C1=C(O)c2ccccc2C(=O)/C1=C\c1ccc(C)cc1	28.2µM*	?	-20.2%	?	-8.4%	?	-33.8%	-38.1%
COc1cccc(NC(=O)[C@H](Cc2ccccc2)NC(=O)[C@@H]2Cc3ccccc3CN2)c1	15.3%	·	·	-8.1%	·	·	14.4%	29.0%
CN(C)CCCNc1ccc(-c2nn(C)c(=O)c3ccccc23)cc1[N+](=O)[O-]	-3.6%	?	·	2.5%	·	-15.7%	-1.1%	3.9%
CCOc1ccccc1/C=N/NC(=O)c1ccc(Cn2cc([N+](=O)[O-])cn2)o1	?	-7.9%	2.9%	-4.1%	-10.6%	-0.8%	8.8%	11.3%
CC(/C=C/C1(O)C(C)CC(=O)CC1(C)C)OC1OC(CO)C(O)C(O)C1O (configuration not stated)	-15.8%	·	·	5.0%	·	·	0.2%	-2.7%
